High-throughput results from PubChem.
PINK1 expr mod: changes PINK1 expression; PINK1 immunofluorescence, high-content cytometry, 24 h; Potency, µM (series often up to 76.6 µM), for inactives: at the top dose activation (PINK1 increase), actives largely listed as activators; 0.2% of 410,000 active; AID 624263; active = well fitted activation curve with a large enough effect; inconclusive = small, poorly fitted or top-dose-only effect; inactive = flat fitted curve, though single readings scatter; cell line not stated here;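 further: potency means the concentration at half of the fitted maximal effect; % of control where 0% means no effect; nearly all actives have a fitted effect of over 65% in size; a mitochondrial uncoupler was the plate control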
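PINK1 protein, normally rapidly degraded, was detected by immunofluorescence after 24 hour compound treatment of a stable cell line. Titration data (5 concentrations) came from laser-scanning cytometry, with CCCP-treated wells as controls.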
TRPML1 agonist: human mucolipin-1 channel agonism. TRPML1-expressing cells, Ca2+ dye fluorescence, FDSS; host cell line not named in the record; reference of the full effect not given here. activation, % (test concentration not listed). 0.12% of 410,000 active. AID 624414; in the data active = activation above about 50%; inconclusive = about 30% to 50%; inactive = below about 30%; further: 0% is about no effect; the text of the record puts the active cut at 80%
Target sequence (Q9GZU1 whole entry, looked up): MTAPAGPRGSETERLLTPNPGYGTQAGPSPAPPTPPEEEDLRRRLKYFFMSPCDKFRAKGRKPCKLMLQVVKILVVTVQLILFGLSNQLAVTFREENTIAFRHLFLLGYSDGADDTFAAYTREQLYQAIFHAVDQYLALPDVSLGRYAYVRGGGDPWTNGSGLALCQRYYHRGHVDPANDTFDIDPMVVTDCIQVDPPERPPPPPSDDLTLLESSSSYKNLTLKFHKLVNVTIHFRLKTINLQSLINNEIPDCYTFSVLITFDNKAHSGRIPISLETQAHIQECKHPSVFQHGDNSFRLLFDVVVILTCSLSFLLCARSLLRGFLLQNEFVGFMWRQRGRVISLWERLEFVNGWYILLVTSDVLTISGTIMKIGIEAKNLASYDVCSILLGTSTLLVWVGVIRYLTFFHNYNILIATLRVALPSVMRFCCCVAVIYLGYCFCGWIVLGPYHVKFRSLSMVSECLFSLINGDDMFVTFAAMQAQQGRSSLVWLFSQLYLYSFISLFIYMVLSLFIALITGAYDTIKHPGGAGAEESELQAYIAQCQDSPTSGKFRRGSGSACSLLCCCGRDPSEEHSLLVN
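TRPML1-DL cells, Tet-induced overnight (~16 h, 37 degrees C), loaded 45-90 min at room temperature with Ca8 no-wash calcium dye plus quencher. FDSS fluorescence: 10 s baseline, compound pin-transfer, 110 s agonist read, then EC80 54-4 (4uM final) and 110 s antagonist read.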
An asterisk follows results filed as active; ? = inconclusive.

Below each SMILES: TRPML1 agonist | PINK1 expr mod
Cc1ccc(NS(=O)(=O)c2ccc(-c3cc(C)no3)cc2)c(Br)c1
  0.3 | 11%
O=C(Nc1ccc2c(c1)N(C1CCCC1)C(=O)c1ccccc1S2)c1ccc(F)cc1
  0.5 | -0.1%
COc1ccc(NC(=O)CCCn2nc(C)c3sc4ccccc4c3c2=O)cc1
  0.4 | 5.6%
Cc1ccnc(NS(=O)(=O)c2cc(-c3cc(C)no3)ccc2C)c1
  0.5 | -0.1%
Cc1ccc2nc(CSc3nnc(NC(=O)COc4ccccc4)s3)cc(=O)n2c1
  0.3 | 0.3%
COc1ccc(NC(=O)C(NC(=O)/C=C\c2ccc3c(c2)OCO3)c2ccccc2)cc1 (stereo not drawn)
  0.5 | 4.5%
CN(c1ccccc1)C(CNS(=O)(=O)c1ccccc1)c1ccccc1 (stereo not drawn)
  5.6 | ?
CC(CNC(=O)Cc1ccc(NC(=O)N2CCSc3ncccc32)cc1)c1ccccc1 (stereo not drawn)
  1.3 | -1.0%
CCc1ccc(-n2nc(C)c3c(C(=O)Nc4cc(OC)cc(OC)c4)cc(C)nc32)cc1
  -0.6 | 0.0%
CC(=O)c1ccc(NS(=O)(=O)c2ccc(-n3cccn3)cc2)cc1
  1.6 | 0.0%
CCC(=O)N1CCc2cc(Br)cc(S(=O)(=O)NCCc3ccccc3Cl)c21
  -0.3 | -1.3%
Cc1ccc(-c2n[nH]c3c2C(c2ccccc2Cl)N(c2ccc(C(=O)O)cc2)C3=O)cc1 (stereo not drawn)
  0.2 | 2.6%
COc1cc(OC)cc(C(=O)N2CCC(c3ccncc3)CC2)c1
  -0.8 | 6.4%
O=c1n(Cc2ccc(F)cc2)nc2n1-c1cc(Cl)ccc1OC2
  0.7 | -0.4%
CCCOc1ccc(/C=C/C(=O)Nc2sc(C)c(C)c2C(=O)OCC)cc1OC
  1.9 | -1.2%
COc1ccc(Cl)cc1NC(=O)Cn1c(=O)c(-c2ccccc2NC(C)=O)nc2ccccc21
  -0.2 | 3.4%
CC(=O)c1cc2ccccc2c2ccccc12
  -0.9 | 3.3%
COc1ccc(/C=C/c2nnc(NC(=O)COc3ccc(Cl)cc3)s2)cc1
  0.2 | 9.8%
Clc1nc(NCC2CCCO2)c2[nH]cnc2n1 (stereo not drawn)
  -0.1 | 8.4%
CC1CCC(NC(=O)c2ccc3c(c2)N(Cc2ccccc2)C(=O)c2ccccc2S3=O)CC1 (stereo not drawn)
  -0.2 | 1.3%
COc1ccc(C(C)=O)cc1CSc1nc(Nc2ccc(F)c(F)c2)c2ccccc2n1
  2.4 | -1.0%
CCOC(=O)c1c(S(=O)(=O)N2CCCC(C(=O)N3CCN(c4cccc(C)c4C)CC3)C2)c(C)n(C)c1C (stereo not drawn)
  -0.7 | 0.2%
COc1ccc(CNC(=O)C(CC(C)C)N2Cc3ccccc3C2=O)cc1 (stereo not drawn)
  0.4 | 1.1%
CC(=O)OCc1cnc(C)c2oc(=O)c(C(=O)Nc3ccc(C)cc3Cl)cc12
  0.3 | -1.6%
Cc1cc(C)c(NC(=O)c2ncoc2-c2ccco2)c(C)c1
  -0.2 | 1.5%
COc1ccc(-n2ccnc2SCC(=O)Nc2cccc(OC)c2)cc1
  3.9 | -5.6%
COC(=O)c1c(NC(=O)c2nc(SCc3ccc(F)cc3)ncc2Cl)sc2c1CCCC2
  -0.3 | 4.1%
O=C(Nc1ccc2oc(-c3cccc(F)c3)nc2c1)c1ccc2ccccc2c1
  0.8 | 2.6%
COc1ccccc1C(=O)Nc1ccc(C(=O)OCc2cc(=O)n3c4c(sc3n2)CCCC4)cc1
  0.7 | -0.3%
Cc1coc2cc3oc(=O)c(CCC(=O)N4CCCCC4)c(C)c3cc12
  -0.2 | 1.8%

Copied from the list.
Reading for CN(c1ccccc1)C(CNS(=O)(=O)c1ccccc1)c1ccccc1 (stereo not drawn) in TRPML1 agonist: 5.6
Reading for CC(=O)OCc1cnc(C)c2oc(=O)c(C(=O)Nc3ccc(C)cc3Cl)cc12 in TRPML1 agonist: 0.3
Reading for COc1ccc(Cl)cc1NC(=O)Cn1c(=O)c(-c2ccccc2NC(C)=O)nc2ccccc21 in TRPML1 agonist: -0.2
Reading for CC(=O)c1ccc(NS(=O)(=O)c2ccc(-n3cccn3)cc2)cc1 in PINK1 expr mod: 0.0%
Reading for Clc1nc(NCC2CCCO2)c2[nH]cnc2n1 (stereo not drawn) in PINK1 expr mod: 8.4%

Additional compounds follow:
Below each SMILES: TRPML1 agonist | PINK1 expr mod
COc1ccc(Cn2c(C(=O)O)c(CNC3CCCC3)c3ccc(C)cc32)cc1
  5.0 | -0.5%
COc1ccc(-c2cccc(NS(=O)(=O)c3cccs3)c2)nn1
  -0.5 | -0.2%
CCC(=O)N1c2ccccc2CC1C(=O)NCCCN1CCN(c2ccc(OC)cc2)CC1 (stereo not drawn)
  0.6 | 2.5%
Cc1ccccc1-c1noc(-c2cccnc2N2CCN(c3ccccc3)CC2)n1
  0.0 | 0.1%
CCCc1cnc2c(c1SCC(=O)Nc1ccc([N+](=O)[O-])cc1)c(=O)n(C)c(=O)n2C
  0.0 | 0.6%
Cc1ccc(CNc2ccc3cc(S(=O)(=O)N4CCCCC4)ccc3n2)cc1
  -0.1 | 2.2%
COc1ccc(-c2c3c(nc4sc(C(=O)Nc5ccc(Cl)cc5)c(N)c24)CC(C)(C)CC3=O)cc1
  3.0 | 2.5%
Cc1ccc(-c2nnc3c4ccccc4c(C)nn23)cc1NC(=O)c1ccccc1Cl
  -0.5 | 1.5%
O=C(O)c1c2c(nc3ccccc13)CCCC2
  -0.2 | 1.9%
Cc1ccc(-c2nn3c(-c4ccccc4)nnc3c3ccccc23)cc1
  -0.3 | -0.4%
Cc1cc(C)cc(OCC(=O)Nc2cccc(-c3nc4ccccc4[nH]3)c2)c1
  1.5 | -1.5%
Cc1nc2cccnc2n1-c1cccc(C(=O)NCCc2ccc(S(N)(=O)=O)cc2)c1
  -0.7 | 1.8%
COc1cc(Cl)c(C)cc1NC(=O)c1cnc(N2CCCCC2)c2ccccc12
  69* | 0.5%
O=C(Nc1ccc(OC(F)F)cc1)c1nc(S(=O)(=O)Cc2ccccc2F)ncc1Cl
  3.1 | -0.2%
Cc1cccc(N2CCN(Cc3nnc(-c4ccc5c(c4)OCO5)o3)CC2)c1C
  1.0 | -0.3%
CCOc1ccccc1NC(=O)c1cc2c(=O)oc3ccccc3c2s1
  0.0 | 0.7%
Cc1ccc(NC(=O)C2CCCN(c3nnc(-n4c(C)ccc4C)s3)C2)c(C)c1 (stereo not drawn)
  0.4 | -0.6%
COc1ccc(Cn2nnc3c(=O)[nH]c(C4CCCN(C(=O)c5ccc(C)cc5)C4)nc32)cc1 (stereo not drawn)
  1.9 | 0.2%
CCc1ccc2oc(-c3cc(NC(=O)COc4ccc(C)cc4)ccc3O)nc2c1
  -0.4 | -0.1%
CCc1ccc(NC(=O)NCCc2c(C)nn(C)c2C)cc1
  -0.9 | -1.1%
CCOC(=O)c1c(NC(=O)CCCOc2ccccc2C)sc2c1CCC(C)C2 (stereo not drawn)
  -0.1 | 1.0%
O=C(Cn1nc(-c2ccccc2)c2c(c1=O)CCCC2)Nc1ccc(F)c(Cl)c1
  3.0 | -0.4%
O=C(C[n+]1ccc2ccccc2c1)c1ccc(O)c(O)c1
  0.3 | 0.7%
COc1ccc(C)cc1NS(=O)(=O)c1cnc(N)nc1
  -0.7 | -1.4%
CCCCOC(=O)c1ccc(NC(=O)C2(c3cccs3)CCOCC2)cc1
  0.6 | 2.5%
CCc1ccc(S(=O)(=O)c2cn(Cc3ccc(OC)cc3)c3cc(OC)c(OC)cc3c2=O)cc1
  -1.1 | -0.2%
O=C(CCS(=O)(=O)c1cccc2nonc12)Nc1cccc(F)c1
  -0.6 | 2.6%
CCOC(=O)C1CCC(CN(Cc2ccc(OC)cc2)S(=O)(=O)c2ccc(F)c(C(=O)Nc3ccc(C)c(C)c3)c2)CC1 (stereo not drawn)
  0.6 | 1.9%
O=c1c(S(=O)(=O)c2ccc(Cl)cc2)cn(Cc2ccc(F)cc2)c2ccc(F)cc12
  4.4 | -0.2%
CCc1ccccc1NC(=O)C(=O)NCCCN1CCOCC1
  1.3 | -2.4%
CCn1c2ccccc2c2nnc(N3CCN(c4ccc(F)cc4)CC3)nc21
  -0.6 | 0.6%
CCOc1ccc(-c2nonc2NC(=O)COc2ccccc2)cc1
  1.4 | 0.9%
COc1ccc(C)cc1N(C)C(=O)CCc1nc(-c2ccccc2F)no1
  3.0 | 0.0%
Cc1cccc(OCC(=O)OCc2cc(=O)n3nc(-c4cccs4)sc3n2)c1
  -0.8 | 1.9%
O=C(CCc1nc(-c2ccccc2F)no1)Nc1cccc(C(F)(F)F)c1
  3.9 | -0.2%
Cc1cc(C)cc(NC(=O)C2CCCN(S(=O)(=O)c3cccc4nsnc34)C2)c1 (stereo not drawn)
  0.2 | 0.9%
CCCN1CCN(c2nnc(-n3cccc3C(=O)Nc3cc(Cl)ccc3C)s2)CC1
  0.7 | -1.3%
COc1ccc(-c2nnc(SCC(=O)Nc3ccc(C)c(Cl)c3)nc2-c2ccc(OC)c(OC)c2)cc1OC
  2.6 | -0.2%
S=c1[nH]c(=S)c2n[nH]nc2[nH]1
  0.0 | 0.8%
CCOc1ccc(-c2cc(C(=O)N3CCN(c4ccc(C)cc4)C(C)C3)c3ccccc3n2)cc1 (stereo not drawn)
  0.5 | -1.8%
CCC(=O)c1cc2c(cc1NC(=O)c1ccccc1F)OCCO2
  1.4 | -2.6%
CCc1ccc(NC(=O)c2nc3nc(C)cc(C(F)F)n3n2)cc1
  -0.3 | -1.0%
CCN(C(=O)Cn1cc(C(=O)c2ccc(F)cc2)c(=O)c2ccc(C)nc21)c1cccc(C)c1
  0.5 | 1.7%
COC(=O)CS(=O)(=O)c1nc2ccccc2nc1N1CCCCC1
  0.8 | 1.1%
CCOCCCNC(=O)C(c1ccc(OC)cc1)N(Cc1ccc2c(c1)OCO2)C(=O)c1ccc(NC(C)=O)cc1 (stereo not drawn)
  0.5 | -1.1%
CC(=O)c1ccc(NS(=O)(=O)c2cc3[nH]c(=O)c(=O)[nH]c3cc2C)cc1
  2.7 | 0.7%
COc1ccc(C(=O)NCC(c2ccc(N(C)C)cc2)N2CCCC2)cc1 (stereo not drawn)
  -1.0 | 1.0%
COc1ccc(NC(=O)c2ccco2)cc1NC(=O)c1cccc(C)c1OC
  0.9 | 0.5%
Cc1cc(=O)n(CC(=O)Nc2cccc([N+](=O)[O-])c2)c(-n2nc(C)cc2C)n1
  1.2 | 1.1%
COc1ccc(NC(=O)c2c(NC(=O)c3ccncc3)sc3c2CCC(C(C)(C)C)C3)cc1 (stereo not drawn)
  0.2 | ?
COC(=O)c1cc2oc3ccccc3c2n1Cc1ccc(C)cc1
  1.6 | -0.9%
O=C(Cc1ccc(OCCCc2ccccc2)cc1)NO
  -0.6 | 1.6%
COc1ccc(-n2ncc(C(=O)NCc3ccccc3)c2C2CCN(C(=O)OC(C)(C)C)CC2)cc1
  1.5 | 1.0%
Cc1ccc(C(=O)c2cn(Cc3ccc(Cl)cc3)c3nc(C)ccc3c2=O)cc1
  3.1 | 1.3%
Cc1cc(=O)n2[nH]c(NCc3ccc(F)cc3)nc2n1
  -0.2 | -1.2%
CCCCNC(=O)Cn1c(=O)cc(C)c2c(C)nn(-c3ccc(CC)cc3)c21
  -0.6 | 1.7%
Cc1ccc2oc(C(=O)Nc3cccc(Cl)c3)cc(=O)c2c1
  0.3 | 2.2%
CCN(CC)CCNC(=O)C1CCN(c2cc(C)nc3c(-c4ccc(Cl)cc4)c(C)nn23)CC1
  -0.1 | -0.9%
O=c1oc2c(CN3CCOCC3)c(O)ccc2cc1-c1ccc(Cl)cc1
  8.1 | 3.1%
COc1cccc(CNC(=O)c2ccc3c(c2)nc2n3CCC(C)C2)c1 (stereo not drawn)
  -0.8 | -0.4%

Copied from above, four compounds:
Below each SMILES: TRPML1 agonist | PINK1 expr mod
COc1ccc(-c2c3c(nc4sc(C(=O)Nc5ccc(Cl)cc5)c(N)c24)CC(C)(C)CC3=O)cc1
  3.0 | 2.5%
Cc1ccc(-c2nnc3c4ccccc4c(C)nn23)cc1NC(=O)c1ccccc1Cl
  -0.5 | 1.5%
O=C(O)c1c2c(nc3ccccc13)CCCC2
  -0.2 | 1.9%
Cc1ccc(-c2nn3c(-c4ccccc4)nnc3c3ccccc23)cc1
  -0.3 | -0.4%

(continued)
Below each SMILES: TRPML1 agonist | PINK1 expr mod
CC(C)Cn1c(-c2ccc(S(=O)(=O)N3CCCC3)cc2)csc1=Nc1ccccc1
  10 | 5.5%
COc1ccc(CCNC(=O)CN(c2ccccc2)S(=O)(=O)N(C)C)cc1
  1.2 | -0.8%
CCCSCCCNC(=O)c1ccc2c(c1)nc1n2CCCCC1
  1.0 | -0.3%
NC(=O)NN=C1c2cc(S(=O)(=O)N3CCOCC3)ccc2-c2ccc(S(=O)(=O)N3CCOCC3)cc21
  -0.3 | 0.8%
c1ccc(CNc2nc3ccccc3c3nc(-c4ccccc4)nn23)cc1
  -0.2 | 0.7%
CCc1ccccc1N(CC)C(=O)c1c(C)oc2ncnc(N3CCOCC3)c12
  0.7 | 1.0%
Cc1ccc(C(=O)Nc2ccccc2)cc1S(=O)(=O)Nc1ccc(Br)cc1
  1.5 | ?
Cc1ccccc1Cn1c(CN2CCC(C(=O)NCc3cccnc3)CC2)cc2ccccc21
  4.6 | 3.1%
COc1ccc(CCNC(=O)CCCn2c(=O)c3ccccc3n(CC(=O)Nc3c(C)cc(C)cc3C)c2=O)cc1OC
  -0.6 | 2.4%

Only part of the results is shown, so the mix of outcomes need not match the whole.
